Source: PubChem BioAssay
TRPML1 ag: agonists of human TRPML1 channel; activation, % (concentration not given with the values); Q9GZU1; 410,000 tested, 0.12% active; AID 624414; TRPML1-expressing cells, Ca2+ dye fluorescence, FDSS; host cell line not named in the record; reference of the full effect not given here; in the data active = activation above about 50%; inconclusive = about 30% to 50%; inactive = below about 30%; further: 0% is about no effect; the text of the record puts the active cut at 80%
Target sequence (Q9GZU1 whole entry, looked up): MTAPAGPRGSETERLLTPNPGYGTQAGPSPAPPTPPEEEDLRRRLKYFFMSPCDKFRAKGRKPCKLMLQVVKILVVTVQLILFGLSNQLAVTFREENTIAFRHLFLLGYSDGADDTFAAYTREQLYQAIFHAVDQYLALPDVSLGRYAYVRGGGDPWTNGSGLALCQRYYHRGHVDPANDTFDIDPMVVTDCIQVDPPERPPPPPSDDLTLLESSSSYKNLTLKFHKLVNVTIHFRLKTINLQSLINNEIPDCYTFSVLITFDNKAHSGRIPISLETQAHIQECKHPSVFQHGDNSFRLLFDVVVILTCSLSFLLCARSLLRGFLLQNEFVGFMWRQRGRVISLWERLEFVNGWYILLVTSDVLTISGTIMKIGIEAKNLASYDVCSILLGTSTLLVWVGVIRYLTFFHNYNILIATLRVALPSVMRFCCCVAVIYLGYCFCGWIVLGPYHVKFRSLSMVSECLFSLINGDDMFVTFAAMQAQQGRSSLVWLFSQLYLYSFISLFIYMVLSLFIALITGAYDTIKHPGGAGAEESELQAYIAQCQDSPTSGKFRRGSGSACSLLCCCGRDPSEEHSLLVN
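Calcium fluorescence on an FDSS kinetic reader gave the read-out. Tet-induced TRPML1-DL cells were plated overnight, dye-loaded (Ca8 with quencher, 45-90 min, room temperature, dark), then read 110 s after compound addition, and again 110 s after 4uM final 54-4 (EC80).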
CtBP-E1A blk: inhibitors of CtBP/E1A interaction | AlphaScreen GST-E1A/His-CtBP binding, 1536-well; active compounds read low; control for the full effect not named in the record | activity change, % (no concentration beside the values) | 340,000 tested, 0.49% active; in the data active means activity change below about -65%; inconclusive means about -30% to -65%; inactive means above about -30%; further: on the % scale 0 is the no-effect control and ±100 the full control effect
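Homogeneous bead-based format: GST-tagged E1A captured on glutathione donor beads, His-tagged CtBP on nickel acceptor beads; compounds precede bead addition by 2 h at 37 °C.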
Six1-Eya2 blk: blocks human Six1 binding to Eya2 | activity change, % (concentration not given with the values) | Q15475+O00167 | AlphaScreen GST-Six1/His-Eya2 binding, biochemical; active compounds read low; control for the full effect not named in the record | 360,000 tested, 0.56% active; in the data active = activity change below about -65%; inconclusive = about -30% to -65%; inactive = above about -30%; further: on the % scale 0 is the no-effect control and ±100 the full control effect
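Six1/Eya2 binding was read as AlphaScreen signal after compounds were pinned into GST-Six1 plus His-tagged Eya2 (5X stock 250/500 nM) in pH 8.0 Tris/NaCl/TCEP buffer, beads added, then incubated 1 h, 37 C, dark.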
TRPV1 potentiator: potentiators of human vanilloid receptor 1 (TRPV1); TRPV1-expressing cells, Fluo-8 calcium influx, capsaicin EC20 potentiation; host cell line not named in the record; control for the full effect not named in the record; Q8NER1; 320,000 tested, 0.02% active; potentiation, % at 8.33 µM; active means potentiation above 80%; inconclusive means 30% to 80%; inactive means below 30%; further: 0% is about no effect
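Fluo-8 calcium influx in TRPV1-expressing cells, kinetic read (ex 480/em 520 nm). Compound added and read 3 min for agonist activity, followed by capsaicin at EC20 final and 2 min further read for enhancement.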
D2 potentiator: potentiates the human D2 dopamine receptor allosterically; P14416; DiscoveRx D2 beta-arrestin cells, luminescence, 90 min; 100% = 57 uM dopamine signal; potentiation, % (no concentration beside the values); 360,000 tested, 0.23% active; active = potentiation of 50% or more; inconclusive = 30% to 50%; inactive = 30% or less;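 further: compound concentration not given in the record; tested on top of an EC20 dose of dopamine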
Target sequence (P14416 whole entry, looked up): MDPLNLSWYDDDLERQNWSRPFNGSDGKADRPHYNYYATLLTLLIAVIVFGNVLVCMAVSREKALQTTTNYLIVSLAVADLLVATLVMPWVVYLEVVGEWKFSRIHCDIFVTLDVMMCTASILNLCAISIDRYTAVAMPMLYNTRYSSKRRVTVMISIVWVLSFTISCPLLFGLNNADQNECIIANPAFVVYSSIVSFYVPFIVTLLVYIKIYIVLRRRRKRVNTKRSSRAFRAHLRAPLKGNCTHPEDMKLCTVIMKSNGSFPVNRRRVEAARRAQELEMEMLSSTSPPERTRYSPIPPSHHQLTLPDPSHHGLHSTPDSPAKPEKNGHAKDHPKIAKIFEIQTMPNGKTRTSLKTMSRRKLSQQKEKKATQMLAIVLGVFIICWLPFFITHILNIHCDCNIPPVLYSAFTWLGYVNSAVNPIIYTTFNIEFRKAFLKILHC
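PathHunter beta-arrestin assay in DiscoveRx D2 cells. Compounds were added with an EC20 of dopamine (50 nM final) for 90 min at 37 deg C. Luminescence was read 1 h after detection reagent, with 57 uM dopamine as the EC100 control.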
TRPML1 inh: inhibitors of human TRPML1 channel; activity change, negative = inhibition, % (concentration not given with the values); 390,000 tested, 0.02% active; Q9GZU1; AID 624415; TRPML1-inducible cells, Ca2+ dye fluorescence, FDSS; active compounds read low; inhibition of EC80 agonist-evoked calcium signal; in the data active means activity change below about -50%; inconclusive means about -30% to -50%; inactive means above about -30%;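 further: stimulus is agonist 54-4 at its EC80 concentration; on the % scale 0 is the no-effect control and ±100 the full control effect; the text of the record puts the active cut at -80%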
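Calcium fluorescence in TRPML1-DL cells induced overnight with Tet: a 110 s read after compound pin addition, then a 110 s antagonist read after challenge with 54-4 at 4 uM final (EC80).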
* = called active by the depositor; x = not tested or not shown; & = joins results of further samples. Compounds as they come; any-hit rate near 0.95%.

SMILES	TRPML1 ag	CtBP-E1A blk	Six1-Eya2 blk	TRPV1 potentiator	D2 potentiator	TRPML1 inh
O=c1c2c(nc(NCCO)n1CC1CCCCC1)-c1ccccc1CC21CCCC1	0.6	-1	-2	-7	-4	23
O=C(COC(=O)c1ccc(S(=O)(=O)NCc2ccco2)cc1)NCC1CCCCC1	0.7	-3	-3	2	-3	6
O=C(NC(=S)N1CCCC1)c1ccccc1Cl	0.7	10	4	-10	-6	1
Cc1ccc(SCc2nc3ccccc3[nH]2)cc1	-0.7	3	0	-38	-7	-7
COCCNC(=O)c1ccc2c(Cl)c3c(nc2c1)CCC3	-0.8	1	-9	-12	-9	-6
COc1ccc(-c2sc3ccc(OC)cc3c2-c2ccc(OC)c(F)c2)cc1	-0.5	7	0	-3	-3	3
Cn1c(=O)oc2cc(S(=O)(=O)N3CCc4ccccc4C3)ccc21	0.3	5	-4	-7	1	15
O=C(Nc1ccccc1)C1CC2CCC1C2 (stereo not given)	-0.4	9	8	-12	-4	-6
COc1cc(NC(=O)C2CC(c3c(F)cccc3Cl)=NO2)c(OC)cc1Cl (stereo not given)	0.3	-6	1	1	-5	38
O=[N+]([O-])c1ccc(N2CCCCC2)cc1	0.8	-9	-1	11	-4	21
O=C(NCc1ccc(OC(F)(F)F)cc1)C1CC(c2ccc(C(F)(F)F)cc2)=NO1 (stereo not given)	0.0	11	12	x	-4	-1
COCCCNC(=O)C(Cc1ccccc1)NS(=O)(=O)c1ccc2c(c1)c(=O)n(C)c(=O)n2C (stereo not given)	-0.6	-17	-2	-14	-15	8
COc1ccc(OC)c(CNC(=O)CCNC(=O)Cn2ccc3ccccc3c2=O)c1	-1.1	3	-3	2	-17	-2
COC(=O)c1ccc(NS(=O)(=O)c2ccc(Cl)cc2)o1	0.1	x	2	-8	2	-1
CCC(C)(C)n1nnnc1C(c1cc2ccc(OC)cc2[nH]c1=O)N1CCc2ccccc2C1 (stereo not given)	-0.2	-8	-3	-2	-7	76
COC1=CC(=O)CC(C)C12Oc1cc(OC)cc(OC)c1C2=O (stereo not given)	-0.2	-1	0	-12	2	8
COc1ccc(S(=O)(=O)NCc2cccnc2)cc1OC	0.0	2	1	-6	1	-21
Cc1nc2cc(NC(=O)c3ccc(Br)s3)ccc2s1	-0.2	-7	-8	-17	-10	5
COCCNCC(=O)NC12CC3CC(CC(C3)C1)C2	0.8	5	3	x	11	2
Cc1cc(C)c(CN2CCC(CO)(CCOc3ccccc3)CC2)cc1C	-0.3	-9	-5	-2	-36	13
COc1ccc(S(=O)(=O)NNC(=O)C23CC4CC(CC(C4)C2)C3)cc1[N+](=O)[O-]	0.7	-8	14	4	8	-5
Cc1cn([C@H]2C[C@H](O)[C@@H](CNC=O)O2)c(=O)[nH]c1=O	-0.3	6	-2	x	9	-4
CN1C(=O)C(=O)/C(=C(/O)c2ccccc2)C1c1ccccc1 (stereo not given)	0.9	-8	12	4	-5	-6
Cc1ccc(C2(c3ccccc3)NC(=O)N(CC(=O)NCc3ccccc3)C2=O)cc1C (stereo not given)	1.1	3	1	-2	2	-3
Cc1cnc(C(=O)OCC(=O)c2ccc(F)cc2)cn1	0.9	1	-1	7	-14	-22

Some entries already given, showing only TRPV1 potentiator, TRPML1 inh and CtBP-E1A blk.
Compound,TRPV1 potentiator,TRPML1 inh,CtBP-E1A blk
COc1ccc(S(=O)(=O)NNC(=O)C23CC4CC(CC(C4)C2)C3)cc1[N+](=O)[O-],4,-5,-8
Cc1cn([C@H]2C[C@H](O)[C@@H](CNC=O)O2)c(=O)[nH]c1=O,x,-4,6
CN1C(=O)C(=O)/C(=C(/O)c2ccccc2)C1c1ccccc1 (stereo not given),4,-6,-8

Later entries
SMILES	TRPML1 ag	CtBP-E1A blk	Six1-Eya2 blk	TRPV1 potentiator	D2 potentiator	TRPML1 inh
COC(=O)c1sc(N)c(C(=O)OC)c1COC(=O)C1CC(=O)N(Cc2ccco2)C1 (stereo not given)	-0.1	-15	-5	2	-8	0
CCCn1c(SCC(=O)NC2CCCCC2)nnc1-c1ccccn1	0.5	x	-7	1	-3	11
CCN(CC(=O)Nc1ccc2c(c1)CCC2)Cc1nc2ccccc2c(=O)[nH]1	2.4	-9	-8	-23	4	-9
CCN1CCN(C(=O)c2cc3nc(-c4ccccc4)cc(C(F)(F)F)n3n2)CC1	0.0	2	-2	-12	-5	-12
O=C(c1nn2c(C(F)(F)F)cc(-c3ccccc3)nc2c1Cl)N1CCOCC1	-1.2	-3	-8	3	-3	-1
O=C(CO/N=C/c1ccc(Cl)cc1Cl)NNC(=O)c1ccc(Cl)cc1Cl	1.5	-9	-13	21	-21	17
COCCn1c(=NC(=O)CSCC(=O)NC2CCCCC2)sc2cc(OC)ccc21	-0.4	2	7	1	-11	-2
COc1cccc(CNC(=O)CSC(=S)N2CCCC2)c1	2.1	-21	4	-2	3	-1
COc1cccc(CNC(=O)C2Cc3ccccc3CN2C(C)=O)c1 (stereo not given)	-1.7	-2	-7	-1	0	7
COc1ccc(C2(NC(C)=O)CCN(C(=O)CCC(=O)O)CC2)cc1	0.1	6	5	15	-1	14
CCN(CC)C(=O)Cn1cc(C(=O)C(=O)NCc2cccnc2)c2ccccc21	-0.7	1	-1	25	-8	3
CCCC(C(=O)Nc1ccc2c(C)cc(=O)oc2c1)c1ccccc1 (stereo not given)	-0.6	-2	4	-9	-7	14
COc1ccccc1NC(=O)Cn1ccn(-c2cccc3ccccc23)c(=O)c1=O	0.4	4	0	5	-7	8
COc1ccc(C(=O)c2ccc(N3CCN(C4CC(=O)NC4=O)CC3)cc2)cc1F (stereo not given)	0.7	-1	-3	-1	14	5
CSc1nsc(SC)c1C(=O)NC(=O)Nc1cccnc1	-0.1	x	-1	-12	-18	-5
Cc1cccc(C(=O)OC(C)C(=O)Nc2ccc(S(=O)(=O)N3CCCC3)cc2)c1O (stereo not given)	1.8	-4	-13	-5	-15	12
Cc1nnc(SCC(=O)NC(C)(C)C)n1NCc1ccc(N(C)C)cc1	0.0	-4	6	29	-1	18
O=C(NC1CCCC1)C(c1ccncc1)N(C(=O)Cc1cccs1)c1cccc(F)c1 (stereo not given)	-0.5	6	3	2	-2	4
COC(=O)CSc1ncc(OC)c(OC)n1	-0.5	5	-1	5	-3	-7
Nc1nc(N2CCOCC2)nc(N(c2ccccc2)c2ccccc2)n1	-0.5	-1	-5	x	-7	8
O=C(NCC1CCCO1)c1ccc(F)c2ccccc12 (stereo not given)	0.0	0	10	-17	-21	-2
O=C(NCc1ccc2c(c1)OCO2)c1ccccn1	-0.2	4	-2	-15	-17	-2
c1cncc(CSc2ccc(-c3cccnc3)nn2)c1	-0.3	0	1	3	3	-4
CCCCCCn1c(=O)n2n(c1=O)[C@@H]1CN(S(=O)(=O)c3ccc(C)cc3)C[C@]1(O)[C@@H](OC(=O)NCC1CCCCC1)C2	-0.4	-2	-2	x	1	22
CCc1ccc2[nH]c(=O)c(C(c3nnnn3CCOC)N3CCN(c4ccccc4F)CC3)cc2c1 (stereo not given)	1.8	14	0	-13	-26	28

An excerpt from above in order of molecular weight, highest first.
SMILES	TRPML1 ag	CtBP-E1A blk	Six1-Eya2 blk	TRPV1 potentiator	D2 potentiator	TRPML1 inh
CCCCCCn1c(=O)n2n(c1=O)[C@@H]1CN(S(=O)(=O)c3ccc(C)cc3)C[C@]1(O)[C@@H](OC(=O)NCC1CCCCC1)C2	-0.4	-2	-2	x	1	22
CCc1ccc2[nH]c(=O)c(C(c3nnnn3CCOC)N3CCN(c4ccccc4F)CC3)cc2c1 (stereo not given)	1.8	14	0	-13	-26	28
COCCn1c(=NC(=O)CSCC(=O)NC2CCCCC2)sc2cc(OC)ccc21	-0.4	2	7	1	-11	-2
O=C(NC1CCCC1)C(c1ccncc1)N(C(=O)Cc1cccs1)c1cccc(F)c1 (stereo not given)	-0.5	6	3	2	-2	4
O=C(c1nn2c(C(F)(F)F)cc(-c3ccccc3)nc2c1Cl)N1CCOCC1	-1.2	-3	-8	3	-3	-1
COc1ccccc1NC(=O)Cn1ccn(-c2cccc3ccccc23)c(=O)c1=O	0.4	4	0	5	-7	8
Cc1nnc(SCC(=O)NC(C)(C)C)n1NCc1ccc(N(C)C)cc1	0.0	-4	6	29	-1	18
CCN(CC(=O)Nc1ccc2c(c1)CCC2)Cc1nc2ccccc2c(=O)[nH]1	2.4	-9	-8	-23	4	-9
CCCn1c(SCC(=O)NC2CCCCC2)nnc1-c1ccccn1	0.5	x	-7	1	-3	11
CSc1nsc(SC)c1C(=O)NC(=O)Nc1cccnc1	-0.1	x	-1	-12	-18	-5
CCCC(C(=O)Nc1ccc2c(C)cc(=O)oc2c1)c1ccccc1 (stereo not given)	-0.6	-2	4	-9	-7	14
COc1cccc(CNC(=O)CSC(=S)N2CCCC2)c1	2.1	-21	4	-2	3	-1
c1cncc(CSc2ccc(-c3cccnc3)nn2)c1	-0.3	0	1	3	3	-4
O=C(NCC1CCCO1)c1ccc(F)c2ccccc12 (stereo not given)	0.0	0	10	-17	-21	-2
O=C(NCc1ccc2c(c1)OCO2)c1ccccn1	-0.2	4	-2	-15	-17	-2
COC(=O)CSc1ncc(OC)c(OC)n1	-0.5	5	-1	5	-3	-7

Going on with the list.
SMILES	TRPML1 ag	CtBP-E1A blk	Six1-Eya2 blk	TRPV1 potentiator	D2 potentiator	TRPML1 inh
CCS(CC)=NS(=O)(=O)c1ccc(NC(C)=O)cc1	-0.3	0	4	1	-5	11
CN(C)c1ccc(/C=C/c2ccncc2)cc1	0.4&3.6	-16	10	1	-7	18
COc1ccccc1CN1CC(C(=O)N(C)CCOc2ccccc2)CCC1=O (stereo not given)	0.0	3	2	5	-5	6
CCn1nc(C(=O)NNC(=O)COc2ccccc2C)c2ccccc2c1=O	2.0	-4	-6	4	-5	25
NC(=O)c1cccc(CS(=O)(=O)c2ccc(Cl)cc2)c1	-0.4	3	3	-2	-3	-17
COc1ccc(C(=O)n2cnc3ccccc32)cc1[N+](=O)[O-]	x	x	-1	16	26	x
O=S(=O)(c1ccc(S(=O)(=O)N2CCC3(CC2)OCCO3)cc1)N1CCCC1	0.7	5	0	-8	-1	1
COc1ccccc1NC(=O)c1cccc(S(=O)(=O)N2CCOCC2)c1	0.0	0	29	5	-5	11
COc1ccc(NC(=O)CSc2nc(SC)ns2)cc1	0.4	10	-2	0	-2	7
COc1ccccc1C(=O)O/N=C(/c1ccncc1)c1ccc([N+](=O)[O-])cc1	0.6	6	-9	-9	100*	-7
